VACV Venus inh = qHTS for Stage-Specific Inhibitors of Vaccinia Orthopoxvirus: Venus Reporter Primary qHTS | 330,000 tested, 0.46% active | Potency, µM (highest dose often 36.5 µM), for the others: at the highest dose activity change, negative = inhibition, hits mostly inhibitors | Vaccinia virus Venus reporter expression, fluorescence | AID 720580, 2013; active means well fitted inhibition curve with a large enough effect; inconclusive means small, poorly fitted or top-dose-only effect; inactive means no such curve, though single readings can be large or run the other way; tested in A549 cells; note: nearly all actives have a fitted effect of over 30% in size; inactives centre near -10
Vaccinia mCherry = qHTS for Stage-Specific Inhibitors of Vaccinia Orthopoxvirus: mCherry Reporter Primary qHTS; Vaccinia virus mCherry reporter infection, fluorescence; about a quarter of the inactives have no number; 310,000 tested, 0.63% active; AID 720579, 2013; Potency, µM (series often up to 36.5 µM), for inactives: top-dose activity change, negative = inhibition, usual class: inhibitors; active = well fitted inhibition curve with a large enough effect; inconclusive = small, poorly fitted or top-dose-only effect; inactive = no such curve, though single readings can be large or run the other way; tested in A549 cells; note: nearly all actives have a fitted effect of over 35% in size; inactives centre near -10
Numbers without * were called inactive; i = inactive; u = inconclusive; x = no result given; & = joins results of further samples; [ ] = remark or other dose. % is set by controls: 0 for no effect and ±100 for the full control effect; potency is the fitted concentration of half-maximal effect.

A first look:
Molecule | VACV Venus inh | Vaccinia mCherry
O=C(COc1ncnc2ccccc12)N1CCN(C(=O)c2ccco2)CC1 | -11% | x
O=C1OCCN1N=Cc1ccco1 | 12% | -7%
COCCNC(=O)Cn1nc(-c2ccc(C)cc2)c2ccccc2c1=O | -3% | -13%

The listing, previewed entries included:
Molecule | VACV Venus inh | Vaccinia mCherry
O=C(COc1ncnc2ccccc12)N1CCN(C(=O)c2ccco2)CC1 | -11% | x
O=C1OCCN1N=Cc1ccco1 | 12% | -7%
COCCNC(=O)Cn1nc(-c2ccc(C)cc2)c2ccccc2c1=O | -3% | -13%
Cc1ccc(C(=O)NNC(=O)c2ccncc2)cc1S(=O)(=O)N1CCOCC1 | -13% | -11%
CCCOc1ccc([N+](=O)[O-])c(N)c1 | -12% | i
COc1cc(Cl)c(C)cc1NC(=O)CC(c1ccc(F)cc1)N1Cc2ccccc2C1=O (stereo not given) | -26% | -24%
CCN(CC)CCNc1ccc2nnc(CCNS(=O)(=O)c3ccc(C)cc3)n2n1 | 5% | i
C=CC1CN2CCC1CC2c1[nH]c2ccccc2c1CCO (stereo not given) | -3% | -4%
CCc1cccc2sc(N3CCN(C(=O)C4CC4)CC3)nc12 | -13% | -18%
COc1cc(C#N)c(NC(=O)CN2CCC(C(N)=O)CC2)cc1OC | -7% | i
Cc1ccc(NC(=O)CSc2ncnc3ccccc23)cc1S(=O)(=O)N1CCCCCC1 | u | u
CCN(CC)c1ccc([N+](=O)[O-])cc1C(=O)O | -4% | -7%
CCCCCOc1ccc(NS(C)(=O)=O)cc1 | -7% | -2%
CCOC(=O)c1ccc(NC(=O)C2CC(=O)N=C(N)S2)cc1 (stereo not given) | -12% | -9%
Cc1nc(-c2ccccc2)sc1CCNC(=O)C(=O)Nc1ccc2c(c1)OCO2 | -13% | i
CN(C)S(=O)(=O)c1ccc(C(=O)NCc2nnc(SCC(=O)N3CCCCCC3)o2)cc1 | -9% | -16%
O=C(CNC(=O)c1ccc(Cl)cc1)Nc1ccc(Br)cc1C(=O)c1ccccc1 | -16% | i
O=C(O)CNC(=O)/C(=C/c1ccco1)NC(=O)/C=C/c1ccccc1 | -1% | -8%
CC(=O)C1=C(Nc2ccccc2)CC(C)(O)C(C(C)=O)C1c1ccccc1 (stereo not given) | -17% | -10%
COCC(Cc1ccccc1)NC(=O)Cn1cc(C)c(=O)[nH]c1=O (stereo not given) | -2% | i

The list goes on, overlapping the part above by 3 compounds.
Molecule | VACV Venus inh | Vaccinia mCherry
O=C(O)CNC(=O)/C(=C/c1ccco1)NC(=O)/C=C/c1ccccc1 | -1% | -8%
CC(=O)C1=C(Nc2ccccc2)CC(C)(O)C(C(C)=O)C1c1ccccc1 (stereo not given) | -17% | -10%
COCC(Cc1ccccc1)NC(=O)Cn1cc(C)c(=O)[nH]c1=O (stereo not given) | -2% | i
O=C(O)c1c(NC(=O)N2CCOCC2)sc2c1CCCC2 | 4% | -26%
CCCC(=O)C1=C(O)C(C(=O)OC)C(C)(C)CC1=NC (stereo not given) | 8% | x
CCOc1ccc(CCNC(=O)C(CC)n2nc(C)c3c(C)n(-c4ccccc4)nc3c2=O)cc1 (stereo not given) | -17% | -22%
CC(=O)c1cccc(NC(=O)c2cc(S(=O)(=O)N3CCOCC3)cs2)c1 | -13% | -4%
COc1ccccc1NC(=O)c1oc2ccccc2c1NC(=O)c1ccc(S(=O)(=O)N(C)C)cc1 | -11% | -2%
COc1ccc(/C=N/OCC(=O)NCc2cccs2)c(OC)c1 | -11% | -16%
O=C(NCc1cccnc1)c1ccc(NC(=O)c2ccco2)cc1 | -11% | -10%
O=C(Nc1ccc2oc(-c3ccccc3)nc2c1)c1cccnc1 | -18% | x
Cc1ccc(O)c(C(=O)c2cc(C#N)c3nc4ccccc4n3c2)c1 | 244%[activator] | u
CCN(CC)C(=O)C1=C(C)Nc2nc3ccccc3n2C1c1ccc(Cl)cc1 (stereo not given) | -7% | -16%
Cc1ccc(Nc2nnc(SCC(=O)Nc3ncc(S(=O)(=O)c4ccc([N+](=O)[O-])cc4)s3)s2)cc1 | -4% | i
Cc1cc(OCC(=O)N2CCC(C(=O)NCC(C)C)CC2)c2c3c(c(=O)oc2c1)CCCC3 | -8% | -5%
O=c1c(O)c(-c2ccccc2)oc2cc(O)ccc12 | -14% | -26%
Cc1ccc(C(=O)COc2cccc(NC(=O)c3ccco3)c2)cc1 | -15% | -12%
CCOC(=O)N1CCN(S(=O)(=O)c2ccc3c(c2)SCC(=O)N3)CC1 | -11% | -13%
Cc1cc(C)cc(N(C(=O)c2ccc(Br)o2)C2C=CS(=O)(=O)C2)c1 (stereo not given) | -10% | -3%
O=C(CN1C(=O)NC2(CCCC2)C1=O)Nc1cccc(-c2nnc3n2CCCCC3)c1 | -5% | -13%
O=S(=O)(c1cc(F)ccc1F)N1CCN(C2CCCCC2)CC1 | -4% | -12%
COC(=O)c1c(NC(=O)c2cccc([N+](=O)[O-])c2)sc(C(N)=O)c1C | 6% | -7%
COc1ccc(-c2ncccc2OC(=O)C23CC4CC(CC(C4)C2)C3)cc1OC | -9% | -8%

Next structures:
Molecule | VACV Venus inh | Vaccinia mCherry
O=C(COc1ncnc2ccccc12)Nc1cc([N+](=O)[O-])ccc1F | -7% | -16%
O=C1COc2ccc(S(=O)(=O)CCC(=O)N3CCN(c4cccc(C(F)(F)F)c4)CC3)cc2N1 | -26% | -3%
COc1ccc(N2CCN(S(=O)(=O)CCNC(=O)COc3ccccc3)CC2)cc1 | -12% | i
O=C(c1ccc(S(=O)(=O)Nc2ccccc2)cc1)N1CCCC1 | -9% | i
CCn1c(=O)cc(OCC(=O)N(C)c2ccc(OC)cc2)c2ccccc21 | -3% | -10%
Cc1cc(Br)ccc1NC(=S)NC1CCCC1 | 2% | i
O=C(CSc1nccn1Cc1ccccc1)NCc1ccccc1Cl | 10% | -1%
Cc1ccc2c(c1)N(CCC(=O)NCc1ccccc1Cl)C(=O)CO2 | -2% | 2%
COc1ccccc1CN1CC(C(=O)NCCN(C)CCc2ccccc2)CCC1=O (stereo not given) | -7% | -7%
O=C(COC(=O)CSc1ccc([N+](=O)[O-])cc1)NCCc1ccccc1 | -7% | -14%
CC1(C(=O)O)CCCN1C(=O)c1cccc(OC(F)(F)F)c1 (stereo not given) | 6% | 24%
CCCC1(C(=O)OCC)NC(c2ccc(O)cc2)C2C(=O)N(c3ccc4c(c3)OCCO4)C(=O)C21 (stereo not given) | -14% | i
COc1ccc(CNC(=O)C(C)N2CCN(S(=O)(=O)c3ccccc3F)CC2)cc1 (stereo not given) | -10% | -22%
CCOC(=O)Cc1csc(SCC(=O)NC2CCCC(C)C2C)n1 (stereo not given) | -16% | -3%
COC(=O)c1ccc(Cn2nc(-c3ccc(C)c(C)c3)ccc2=O)cc1 | 2%&-12% | -6%
O=C(Nc1ccc(Oc2cccnc2)cc1)C1CCN(Cc2ccccc2)CC1 | -16% | -2%
O=C(COC(=O)/C=C/c1ccc(F)cc1)NC1CC1 | -18% | i
Cc1cccc(-n2nc3c(c2NC(=O)c2ccco2)CS(=O)C3)c1C (stereo not given) | -13% | i
N#CCCN(C(=O)COC(=O)c1ccc(CNS(=O)(=O)c2ccc(F)c(Cl)c2)cc1)c1ccc(F)cc1 | -8% | -14%
O=C(Cc1ccc(Cl)cc1)NC1CC1 | -9% | i

Record cards, as listed above:
`O=C(c1ccc(S(=O)(=O)Nc2ccccc2)cc1)N1CCCC1` in the list: VACV Venus inh = -9%; Vaccinia mCherry = i
`COc1ccc(N2CCN(S(=O)(=O)CCNC(=O)COc3ccccc3)CC2)cc1` in the list: VACV Venus inh = -12%; Vaccinia mCherry = i
`O=C(COC(=O)/C=C/c1ccc(F)cc1)NC1CC1` in the list: VACV Venus inh = -18%; Vaccinia mCherry = i

(further entries)
Molecule | VACV Venus inh | Vaccinia mCherry
O=C(c1ccc2c(c1)N(Cc1ccccc1)C(=O)c1ccccc1S2(=O)=O)N1CCCC1 | -16% | i
Cc1c(NC(=O)c2nn(CC(C)C)c(=O)c3ccccc23)c(=O)n(-c2ccccc2)n1C | -13% | i
C/C(NCc1ccccc1)=C(\C#N)C(=O)NCc1ccccc1 | 0% | x
Cc1n[nH]c(C)c1S(=O)(=O)N1CCOCC1 | -29% | x
COc1ccc(NC(=O)Cn2cc(S(=O)(=O)c3ccccc3)c(=O)c3cc4c(cc32)OCO4)cc1 | 2% | 5%
Cc1cccc(C(=O)NCC(=O)OCc2cc(=O)n3ccsc3n2)c1 | -12% | -20%
COC(=O)[C@@H]1C2CC3c4[nH]c5cc(OC)ccc5c4CCN3CC2C[C@H](OC(=O)c2cc(OC)c(OC)c(OC)c2)C1OC (stereo not given in full) | -27% | -6%
CN(C)c1ccc(/C=N/NC(=O)C2COc3ccccc3O2)o1 (stereo not given) | 4% | -22%
Cc1ccc(NC(=S)NC2CC3CCC(C2)N3Cc2ccco2)c(C)c1 (stereo not given) | -22% | -13%
Nc1nc(=S)ss1 | 0% | i
COc1ccc(C)cc1NC(=S)NN1CCN(C)CC1 | -8% | 5%
CCN(CCCNC(=O)c1nn(-c2ccc(OC)c(Cl)c2)c(=O)c2c1c1ccccc1n2C)c1cccc(C)c1 | -8% | -10%
CCCCC(NC(=O)c1ccccc1)C(=O)OCC(=O)N1c2ccccc2Sc2ccccc21 (stereo not given) | -18% | -23%
COc1ccccc1C(c1nnnn1C(C)(C)C)N1CCCc2ccccc21 (stereo not given) | -12% | -3%
CCN1CCCC1CNC(=O)c1cnn(-c2nccc(-c3cc4ccccc4o3)n2)c1C1CC1 (stereo not given) | -23% | -23%
O=C(c1cccc(S(=O)(=O)N2CCOCC2)c1)N1CCCc2ccccc21 | 0% | -2%
CC[C@]12c3[nH]c4cc(CCC(=O)N(C)C)ccc4c3CCN1C(=O)[C@@H](CC(=O)NCCN1CCOCC1)C[C@@H]2C(=O)N1CCN(C(=O)c2ccco2)CC1 | 1% | i
CC(C)c1ccc(NC(=O)Nc2nnc([C@H]3C[C@H](O)[C@@H](CO)O3)s2)cc1 | 12% | 6%
O=C(OCc1ccccc1)N1CCCCC1c1c(Cl)cccc1Br (stereo not given) | -3% | 32%[activator]
O=C1CCC(=O)N1c1ccccc1-c1ccccc1 | -1% | x

New compounds follow.
Molecule | VACV Venus inh | Vaccinia mCherry
Nc1ccccc1-c1nnc(SCc2ccccc2F)[nH]c1=O | -28% | x
O=C(CN(Cc1ccccc1)C(=O)CNS(=O)(=O)c1ccc(F)cc1)NCc1ccco1 | -4% | i
COc1ccc(-n2cc(C(=O)Nc3cc([N+](=O)[O-])ccc3OC)c3ccccc3c2=O)cc1 | -6% | -11%
Nc1cc(-c2ccc(Br)cc2)nn1Cc1ccccc1 | -21% | u
Cc1ccc(Nc2nc(N)nc(CN3CCN(Cc4ccc5c(c4)OCO5)CC3)n2)cc1 | u | x
O=C(NCc1cccc(Br)c1)C1CC(c2ccccc2C(F)(F)F)=NO1 (stereo not given) | -25% | -27%
Cc1ccccc1N1CC(C(=O)Nc2nnc(SCC(=O)Nc3nccs3)s2)CC1=O (stereo not given) | 7% | i
O=S(=O)(NCc1ccccn1)c1ccccn1 | 10% | 2%
CCOC(=O)N1CCC(NC(=O)c2cnn(-c3ccc(OC)cc3)c2C2CCN(C(=O)OC(C)(C)C)CC2)CC1 | -11% | -13%
COc1ccc2nc(SCC(=O)Nc3ccc(S(=O)(=O)Nc4onc(C)c4C)cc3)[nH]c2c1 | -2% | x
COc1cccc(-c2cnc3c(NC=O)cc(-c4cc(OC)c(OC)c(OC)c4)cn23)c1 | -10% | u
O=C(c1cc2c(=O)[nH]c3ccccc3c2s1)N1CCN(c2ccc(F)cc2)CC1 | -6% | -10%
Cc1cc(=O)[nH]c(N/N=C/c2ccc(Cl)c([N+](=O)[O-])c2)n1 | 9% | i
FC(F)Oc1ccc(-c2csc(Cc3nnc4n3CCCCC4)n2)cc1 | -13% | x
O=C1CC(C(=O)Nc2ccccc2)S/C(=N\NC(=O)c2ccccc2Cl)N1 (stereo not given) | -17% | -5%
Cc1ccc(-n2ncc3c(N4CCN(C)CC4)ncnc32)cc1C | -2% | -2%
CC(C)CN(C(=O)COC(=O)CNC(=O)c1sc2ccccc2c1Cl)C1CCS(=O)(=O)C1 (stereo not given) | -17% | -14%
CCOC(=O)Cn1cc(Cn2c3ccccc3c(=O)n2C(C)C)nn1 | -1% | 3%
CCOc1ccc(Nc2oc(/C=C/c3ccc(F)cc3)nc2C#N)cc1 | 1% | -5%
COC(=O)C1(CCSC)NC(c2ccc(O)cc2)C2C(=O)N(c3ccc4c(c3)OCCO4)C(=O)C21 (stereo not given) | -22% | -19%
CCC(C)NC(=O)CN1C(=O)NC2(CCOc3ccccc32)C1=O (stereo not given) | 5% | -11%
Cc1ccc(-n2nc3c(=O)n(CC(=O)NC(C)C)nc(C)c3c2C)cc1 | -9% | -2%
O=[N+]([O-])c1cc(-c2nc(-c3ccccc3)no2)ccc1NC1CCCC1 | -3% | -5%

Compound activity deposited in PubChem BioAssay by National Center for Advancing Translational Sciences (NCATS).
